TRPV1 potentiator: potentiators of human vanilloid receptor 1 (TRPV1); potentiation, % at 8.33 µM; TRPV1-expressing cells, Fluo-8 calcium influx, capsaicin EC20 potentiation; host cell line not named in the record; control for the full effect not named in the record; AID 540277; 320,000 tested, 0.02% active; active means potentiation above 80%; inconclusive means 30% to 80%; inactive means below 30%; note: 0% is about no effect
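TRPV1-expressing cells were cultured overnight at 35.5C and loaded with Fluo-8 calcium dye for 40 to 90 min at room temperature. After a 10 s baseline, compound was added and calcium influx was read kinetically for 3 min (ex 480/em 520 nm).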
CtBP-E1A inh: inhibitors of CtBP/E1A interaction | 340,000 tested, 0.49% active | AlphaScreen GST-E1A/His-CtBP binding, 1536-well; stronger effect = lower value; control for the full effect not named in the record | AID 651724 | activity change, % (concentration not given with the values); in the data active means activity change below about -65%; inconclusive means about -30% to -65%; inactive means above about -30%; note: % is set by controls: 0 for no effect and ±100 for the full control effect
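Steps: dispense buffer (Tris pH 8.0, NaCl 300 mM, TCEP 1 mM, BSA, Tween 20); add 5X protein mix (GST-E1A, His-CtBP, 125 nM each); pin 23 nL compound; 2 h at 37 °C, dark; add 5X beads (50 ug/mL); 1 h; read.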
D2 potentiator: potentiates the human D2 dopamine receptor allosterically | DiscoveRx D2 beta-arrestin cells, luminescence, 90 min; 100% = 57 uM dopamine signal | AID 624464 | 360,000 tested, 0.23% active | potentiation, % (no concentration beside the values); active = potentiation of 50% or more; inconclusive = 30% to 50%; inactive = 30% or less;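 note: compound concentration not given in the record; tested on top of an EC20 dose of dopamine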
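PathHunter D2 cells, attached overnight at 37 deg C, received compound in DMSO plus dopamine at EC20 (50 nM final) for 90 min at 37 deg C. Beta-arrestin recruitment was read as luminescence after 1 h with detection reagent at ambient temperature.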
TRPML1 inh: human mucolipin-1 channel inhibition; TRPML1-inducible cells, Ca2+ dye fluorescence, FDSS; stronger effect = lower value; inhibition of EC80 agonist-evoked calcium signal; activity change, negative = inhibition, % (no concentration beside the values); 390,000 tested, 0.02% active; AID 624415; in the data active means activity change below about -50%; inconclusive means about -30% to -50%; inactive means above about -30%;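 note: stimulus is agonist 54-4 at its EC80 concentration; % is set by controls: 0 for no effect and ±100 for the full control effect; compound concentration not given in the record; the text of the record puts the active cut at -80%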
Target sequence (Q9GZU1 whole entry, looked up): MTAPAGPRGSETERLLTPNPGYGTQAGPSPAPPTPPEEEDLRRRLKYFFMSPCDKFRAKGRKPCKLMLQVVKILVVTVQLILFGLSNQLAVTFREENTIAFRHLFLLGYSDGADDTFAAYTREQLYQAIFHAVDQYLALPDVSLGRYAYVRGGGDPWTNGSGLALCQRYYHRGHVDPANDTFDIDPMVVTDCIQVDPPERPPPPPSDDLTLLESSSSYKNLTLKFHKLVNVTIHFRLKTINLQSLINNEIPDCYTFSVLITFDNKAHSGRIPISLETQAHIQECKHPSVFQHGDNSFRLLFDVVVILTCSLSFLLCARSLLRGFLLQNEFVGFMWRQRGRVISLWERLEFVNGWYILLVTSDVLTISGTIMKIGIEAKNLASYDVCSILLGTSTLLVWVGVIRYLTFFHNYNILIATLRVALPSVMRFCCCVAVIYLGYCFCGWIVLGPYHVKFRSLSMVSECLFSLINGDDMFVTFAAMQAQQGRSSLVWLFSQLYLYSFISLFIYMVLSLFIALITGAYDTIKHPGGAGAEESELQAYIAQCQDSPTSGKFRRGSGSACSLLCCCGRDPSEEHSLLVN
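Calcium fluorescence in TRPML1-DL cells induced overnight with Tet: a 110 s read after compound pin addition, then a 110 s antagonist read after challenge with 54-4 at 4 uM final (EC80).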
TRPML1 ag: agonists of human TRPML1 channel; TRPML1-expressing cells, Ca2+ dye fluorescence, FDSS; host cell line not named in the record; reference of the full effect not given here; AID 624414; 410,000 tested, 0.12% active; Q9GZU1; activation, % (test concentration not listed); in the data active = activation above about 50%; inconclusive = about 30% to 50%; inactive = below about 30%; note: 0% is about no effect; the text of the record puts the active cut at 80%
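In this qHTS format, compounds were pin-transferred onto Ca8-dye-loaded TRPML1-DL cells induced with Tet overnight, and intracellular Ca2+ fluorescence was recorded kinetically for 110 s after a 10 s baseline. A subsequent 4uM final 54-4 (EC80) addition followed by a second 110 s read served as the antagonist phase.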
Six1-Eya2 inh: Six1/Eya2 interaction inhibition; Q15475+O00167; activity change, % (no concentration beside the values); AlphaScreen GST-Six1/His-Eya2 binding, biochemical; stronger effect = lower value; control for the full effect not named in the record; 360,000 tested, 0.56% active; AID 651725; in the data active = activity change below about -65%; inconclusive = about -30% to -65%; inactive = above about -30%; note: % is set by controls: 0 for no effect and ±100 for the full control effect; compound concentration not given in the record
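AlphaScreen with GST-Six1 and His-Eya2 (5X mix: 250 nM and 500 nM), glutathione donor and nickel acceptor beads; buffer 50 mM Tris pH 8.0, 300 mM NaCl, 1 mM TCEP; 1 h at 37 C in the dark.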
* = called active by the depositor; ? = inconclusive; / = not tested or not shown. This is a random part of the collection. Share with any hit: about 0.95%.

The first three records as a preview:
mol	Six1-Eya2 inh	CtBP-E1A inh	TRPML1 inh	D2 potentiator	TRPV1 potentiator	TRPML1 ag
COc1cc(C2(c3ccc(O)c(OC)c3)C(=O)N(C)c3ccc(C)cc32)ccc1O	5.2	-6.1	50.6	-1.2	/	0.5
O=C(C1CCCO1)N1CCN(C(=S)NC2CC2)CC1 (configuration not stated)	2.9	10.0	7.5	-7.6	0.7	3.8
Cc1ccc(C(=O)NC(Cc2cccc(F)c2)C(=O)O)cc1 (configuration not stated)	-2.5	-23.5	0.5	/	/	-0.1

The listing, from the start:
mol	Six1-Eya2 inh	CtBP-E1A inh	TRPML1 inh	D2 potentiator	TRPV1 potentiator	TRPML1 ag
COc1cc(C2(c3ccc(O)c(OC)c3)C(=O)N(C)c3ccc(C)cc32)ccc1O	5.2	-6.1	50.6	-1.2	/	0.5
O=C(C1CCCO1)N1CCN(C(=S)NC2CC2)CC1 (configuration not stated)	2.9	10.0	7.5	-7.6	0.7	3.8
Cc1ccc(C(=O)NC(Cc2cccc(F)c2)C(=O)O)cc1 (configuration not stated)	-2.5	-23.5	0.5	/	/	-0.1
COc1cccc(CSc2nc3ccccc3[nH]2)c1	6.3	6.0	-12.5	-1.2	-5.9	2.3
CCn1cc(C(=O)NC2CCCCC2)c(=O)c2cc(S(=O)(=O)N(C)C)ccc21	-4.4	2.6	-0.3	1.2	-23.7	-0.1
CC(C#N)(NC(=O)CN1CCN(S(=O)(=O)c2ccccc2Cl)CC1)C1CC1 (configuration not stated)	3.9	7.2	-8.3	-2.1	-6.1	2.0
O=C(Nc1ccon1)c1cccc(S(=O)(=O)N2CCCC2)c1	-3.2	-7.2	-8.8	-0.8	-7.3	-0.4
CCOC(=O)N1CCC(NC(=O)C2CCN(C(=O)N3CCOc4ccccc43)CC2)CC1	3.4	2.5	-4.3	-3.2	3.6	0.5
CCOc1ccc(NC(=O)CSc2nc3cccnc3n2CCOC)cc1	0.7	0.9	20.6	-8.3	-7.6	1.7
CNC[C@H]1OCCCC[C@H](C)Oc2ccc(NC(=O)CCCN(C)C)cc2C(=O)N([C@H](C)CO)C[C@@H]1C	1.8	4.6	19.7	4.6	/	1.6
N#Cc1ccc(CN2C=NS(=O)(=O)c3ccccc32)cc1	6.1	5.0	-8.4	0.5	?	0.8
Cc1ccc(NC2=NCCCCC2)cc1C	1.9	3.7	-1.5	2.0	-9.1	-0.3
COC(=O)c1cn(CC(=O)Nc2ccc(F)cc2)c2ccccc12	-3.8	-12.5	0.7	-5.6	9.8	0.2
CCCC1(c2ccccc2)NC(=O)N(CC(=O)Nc2cc(C)on2)C1=O (configuration not stated)	-3.8	/	12.3	-40.4	1.7	0.2
CCCCOP(=O)(c1ccc(N(C)C)cc1)C(O)c1cc(OC)ccc1OC (configuration not stated)	1.0	0.3	-5.6	0.9	7.4	-0.5
Cn1cccc1CC(=O)NNC(=S)Nc1ccc(Cl)cc1Cl	-4.7	9.8	2.2	-4.5	6.8	-0.1
C=CC(=O)N1c2ccccc2Sc2ccc(NC(=O)OCC)cc21	9.3	3.6	56.2	-14.9	/	-0.9
COc1cc(Cl)ccc1OCc1cc(C(=O)N2CC[C@@H]3CCCC[C@H]3C2)no1	-2.1	4.1	-4.1	-7.5	12.7	0.4
CNc1cc(C)nc(N2CCOCC2)n1	0.8	/	-1.5	3.7	-8.5	0.7
CCC(C(=O)N1CCN(C(=O)c2ccco2)CC1)n1sc2ccccc2c1=O (configuration not stated)	-0.8	3.8	7.2	-11.6	-12.0	1.3
CCCCOCC1CC(CC#CCN2CCCCC2)C(=O)O1 (configuration not stated)	9.4	-0.7	-18.6	-15.6	11.7	0.0
Cc1ccc(S(=O)(=O)CCC(=O)Nc2ccccc2N2CCCC2)cc1	-1.9	-7.2	-1.1	-4.6	-27.0	0.7
CN(Cc1ccc(F)cc1)C(=O)c1ccc(NS(=O)(=O)c2ccccc2)cc1	-6.7	-0.2	15.3	1.1	?	0.0
Cc1ccc2c(c1)N(CC(=O)NCC1CCCO1)C(=O)C(C)O2 (configuration not stated)	9.9	5.4	5.1	-9.7	6.2	-0.1
Cc1cc(C)n2c(Nc3c(C)cccc3C)c(-c3ccccn3)nc2n1	-90.0*	?	/	/	/	2.5
O=c1oc2cc(O)c(Cl)cc2c2ccccc12	-1.9	-12.6	4.6	0.1	-25.6	3.6
O=C1NC(=O)N(Cc2ccccc2)CC1Br (configuration not stated)	6.2	13.1	-9.3	-27.7	/	0.8
CCOC(=O)c1sc(NC(=O)C2CC(=O)N(c3ccccc3C)C2)nc1C (configuration not stated)	0.3	0.9	-0.1	3.2	15.2	-0.4
CCCCN(C(=O)c1cc(Cl)nc2ccccc12)c1c(N)n(CCCC)c(=O)[nH]c1=O	-1.0	-12.5	10.3	-14.7	-1.1	2.8
O=C(c1cccc(F)c1)N1CCN(C(=O)C(c2ccccc2)c2ccccc2)CC1	2.8	18.7	-6.6	-4.3	-2.9	-0.8
CS(=O)(=O)N1N=C(c2cccs2)CC1c1ccccc1O (configuration not stated)	7.7	-1.8	-17.3	-2.7	-9.7	0.4
O=C(NCc1ccccn1)Nc1ccccc1C(F)(F)F	2.7	-3.3	-4.8	-5.5	8.2	0.5
Cc1ccc(NC(=O)c2cccc3cccnc23)cc1	-5.8	-0.2	15.8	-7.5	-23.3	1.8
N/C(=N/OS(=O)(=O)c1ccc([N+](=O)[O-])cc1)c1ccncc1	1.5	/	21.2	-4.5	-12.7	0.0
O=S(=O)(c1cccc(C(F)(F)F)c1)c1ccc(O)cn1	6.7	3.5	26.3	-5.3	/	-0.3
C=CCOc1c(Cl)cc(/C=N/O)cc1OC	4.9	7.7	-5.7	0.6	16.8	1.1
CN(CC(=O)Nc1ccc(F)cc1)C(=O)Cn1nnc(-c2ccccc2)n1	5.0	-3.9	-10.0	-8.9	-4.7	-0.1
CCN(CC)c1ccc(NC(=O)CCN2C(=O)c3ccccc3S2(=O)=O)c(C)c1	4.2	-6.0	9.5	1.7	15.6	0.2
OC(COCC1COc2ccccc2O1)CN1CCN(c2ccccc2F)CC1 (configuration not stated)	-4.4	-10.8	2.5	-9.5	-2.9	-0.9
CCCN(CC1CC1)C(=O)Nc1ccccc1C	8.3	0.3	-18.7	-6.8	-3.8	-0.1
COc1ccccc1N1CCN(C(=O)Oc2ccccc2)CC1	3.7	8.6	3.5	-5.8	-8.3	1.5
C=CCC[C@H](Cc1ccc(F)cc1)C(=O)OC[C@@H](NC(=O)[C@H](CC=C)CC(=O)NCCO)c1ccccc1	-2.3	3.3	-17.2	-8.3	/	-0.4
Cc1cc2c(=O)n(Cc3ccco3)c(SCC(=O)c3ccc(Cl)s3)nc2s1	-2.0	7.6	16.4	-2.3	-1.2	1.1
Cc1ccc2nc(-c3ccccc3)c(Cc3cccc(F)c3)n2c1	-12.2	-3.5	/	/	/	-0.4
O=C(NCc1ccc(F)c(F)c1)c1cccc2c(-c3cccnc3)coc12	-20.8	-23.8	7.9	-19.8	/	1.7
O=C(Nc1ccccc1)/C(=C/c1ccc(F)cc1)NC(=O)c1ccco1	1.6	1.9	3.2	0.6	-4.6	-0.1
CCC(C)n1c(-c2cccc(S(=O)(=O)N3CCOCC3)c2)n[nH]c1=S (configuration not stated)	1.0	5.5	-6.7	16.5	4.6	-0.3
NS(=O)(=O)c1ccc(NC(=S)NC(=O)C2CCCCC2)cc1	3.7	1.0	7.5	-4.3	-3.4	0.2
O=C(NCCN1CCCC1)c1ccc2c(c1)N(Cc1ccc(F)cc1)C(=O)c1ccccc1S2=O (configuration not stated)	0.0	-7.1	-7.4	-7.5	-1.4	0.1
O=C(O)CCn1c(SCCc2ccccc2)nc2ccccc21	-20.5	5.3	3.7	-4.9	/	-0.4
CCCNC(=O)NC1C(NC(=O)NCCC)N(C)C(=O)N1C (configuration not stated)	13.8	1.2	3.9	-1.0	0.9	0.9
CCO[C@@H]1OC(C(=O)N2CCN(Cc3ccc4c(c3)OCO4)CC2)=C[C@H](c2ccc(Br)cc2)[C@H]1CCCO	-8.4	-7.1	8.3	-24.7	12.2	0.0
O=C(CCC1CCCN(C(=O)c2cc(C3CC3)[nH]n2)C1)N1CCN(c2ccccn2)CC1 (configuration not stated)	-9.4	-1.5	12.4	-7.6	-5.7	-0.1
CC(=O)Nc1sc(C)c(C)c1CN1CCN(S(=O)(=O)c2ccccc2)CC1	-9.2	-4.8	11.0	13.1	-6.2	-1.1
Cn1c(=O)c2cc(NC(=O)Cc3ccccc3F)ccc2n1Cc1ccc(Cl)cc1	-3.0	3.0	/	6.0	/	-0.2
CCn1c(=N)n(CC(O)c2ccccc2)c2ccccc21 (configuration not stated)	-1.3	5.6	-17.4	2.9	?	0.1
Cc1ccnc(NC(=O)c2ccc(Cl)c(S(=O)(=O)N3CCCCC3)c2)c1	-4.3	-3.0	43.8	-1.8	-16.0	0.3
Nc1nnc(-c2ccccc2)c(-c2ccccc2)n1	2.7	-4.8	-7.7	-3.4	10.9	0.0
CCCc1nnc(NC(=O)CCC(=O)N2CCN(S(=O)(=O)c3ccc(OC)cc3)CC2)s1	0.3	6.6	2.5	-7.2	?	-0.7
CCc1nnc(SCC(=O)Nc2ccc(C(C)=O)cc2)nc1CC	-0.1	-1.5	-2.0	-13.3	-4.2	2.0
OCCC1CN(Cc2cccn2-c2ncccn2)CCN1Cc1ccccc1 (configuration not stated)	5.2	-17.0	19.4	-14.5	-1.8	0.3
COc1cc(NC(=O)c2ccc3c(c2)OCCO3)ccc1NC(=O)c1ccco1	5.5	-4.3	17.9	3.3	3.6	0.3

Screening results: PubChem, National Center for Advancing Translational Sciences (NCATS)
